Compound activity deposited in PubChem BioAssay by several laboratories.
RecA splice inh = blocks M. tuberculosis RecA intein splicing; cell-free RecA intein splicing, fluorescence; inhibition, %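 (about 9 µM by stock and volumes)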; hit rate 0.75% among 290,000; AID 2221; in the data active = inhibition above about 30%; inconclusive = no clear call, values can overlap the other calls;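 also: 0% = vehicle wells and 100% = reference inhibitor control wells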
Target sequence (P9WHJ3 whole entry, looked up, canonical isoform): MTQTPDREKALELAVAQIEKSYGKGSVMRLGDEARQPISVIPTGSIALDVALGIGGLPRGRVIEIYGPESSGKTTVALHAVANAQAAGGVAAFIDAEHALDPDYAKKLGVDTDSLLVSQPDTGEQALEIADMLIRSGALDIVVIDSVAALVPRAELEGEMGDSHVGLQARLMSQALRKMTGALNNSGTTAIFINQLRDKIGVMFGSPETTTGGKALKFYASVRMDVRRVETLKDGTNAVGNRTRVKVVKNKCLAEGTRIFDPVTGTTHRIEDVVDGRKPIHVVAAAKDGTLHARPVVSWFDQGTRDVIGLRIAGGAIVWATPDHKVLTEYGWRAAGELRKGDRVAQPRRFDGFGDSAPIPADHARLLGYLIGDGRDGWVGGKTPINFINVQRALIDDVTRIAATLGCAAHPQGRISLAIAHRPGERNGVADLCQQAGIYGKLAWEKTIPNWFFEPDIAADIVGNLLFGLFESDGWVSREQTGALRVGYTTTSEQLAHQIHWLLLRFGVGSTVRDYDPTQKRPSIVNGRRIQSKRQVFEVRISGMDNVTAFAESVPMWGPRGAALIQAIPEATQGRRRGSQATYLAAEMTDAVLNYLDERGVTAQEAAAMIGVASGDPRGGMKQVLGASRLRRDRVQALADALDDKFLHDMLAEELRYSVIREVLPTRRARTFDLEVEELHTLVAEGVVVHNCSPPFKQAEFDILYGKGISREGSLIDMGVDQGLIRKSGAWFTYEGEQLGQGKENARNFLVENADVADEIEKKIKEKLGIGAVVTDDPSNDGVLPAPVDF
Mtb bLac sens = beta-lactam sensitization of Mtb H37Rv. M. tuberculosis H37Rv growth with meropenem, percent inhibition; hits of this screen are not shown here. inhibition, % at 25 µM. hit rate 0.27% among 330,000. AID 434955;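 active = about 74% or more and at least 40 points above the plate without the antibiotic, then above 30% in a dose series; inconclusive = first-round hits that could not be retested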;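 also: growth measured after seven days incubation then overnight dye step; 0% = bacteria only wells and 100% = bacteria with antibiotic; twin plates without the antibiotic show which effects depend on it; some results filed as inactive read as strong as hits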
YopH inh = YopH (Yersinia) phosphatase inhibition; inhibition, %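 (about 10 µM by stock and volumes)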; fluorescence Ex485/Em525; AID 898; hit rate 0.16% among 140,000;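 active = inhibition of 50% or more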;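 also: controls were vehicle for no effect and minimum signal wells for full effect; inactives centre near -20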
Mtb H37Rv = M. tuberculosis H37Rv growth inhibitors, H37Rv strain (AID 1626); M. tuberculosis H37Rv growth inhibition; higher % means a stronger effect; inhibition, % at 10 µM; hits with a dose series show IC50 in µM; hit rate 0.95% among 220,000;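 active = confirmed in a dose series; inconclusive = inhibition above 80% but not taken into the dose series; inactive = below 80% or under 30% at every dose of the series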;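 also: bacteria incubated seven days before Alamar blue readout; 0% = bacteria only wells and 100% = bacteria with antibiotic wells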
Arbovirus anti = antivirals against arbovirus infection | arbovirus infection cell-based antiviral screen | hit rate 0.37% among 200,000 | inhibition, % at 10 µM;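 active = inhibition from about 30%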;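 also: bluetongue infection of BSR cells; cell survival read as ATP light after 72 h; 0% = infected wells without compound and 100% = uninfected wells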
Arbovirus anti repeat = second read-out of Arbovirus anti, no call of its own (marks repeat the call); inhibition, %; measured here: 10K subset replicate screen; many hits read low in the repeat;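 first of two repeat runs on a subset; 0% = infected and 100% = uninfected wells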
An asterisk follows results filed as active; i = inactive; ? = inconclusive; · = not tested or not shown. This is a subset (hit frequency here may not be typical).

SMILES	RecA splice inh	Mtb bLac sens	YopH inh	Mtb H37Rv	Arbovirus anti	others
CCN1C(=O)/C(=C\N2CCN(c3ccccc3)CC2)SC1=S	-0.5	-7	-20	8%	-9
CC(C)N(Cc1nccn1C)C(=O)CC1C(=O)NCCN1Cc1ccc(F)cc1 (stereo unspecified)	2.2	-2	·	·	·
Cc1cccc(C(=O)Nc2ccc3ccccc3c2)c1	7.4	33	·	·	·
Cc1cc(C)c(-c2cc(C(=O)Nc3cc(C)ccc3C)[nH]n2)c(O)c1	-1.0	-7	·	·	·
Cc1ccc(-n2cc(CNCCCn3ccnc3C)c(-c3ccc(F)cc3)n2)cc1	-1.0	92	·	5%	-25
COc1cc(NC(=O)c2cc(Cl)nnc2Cl)cc(OC)c1OC	1.3	-2	·	-3%	14
COc1ccc(CNC(=O)c2cc3c(C)nc4ccccc4c3o2)c(OC)c1	-0.5	7	-24	8%	12	Arbovirus anti repeat=2
COc1ccccc1NC(=O)N1CCN(c2cc(-c3ccccc3)nc3ncnn23)CC1	0.7	99	-47	12%	7
Cc1ccc(C)c(/C(O)=C2\C(=O)C(=O)N(CCCn3ccnc3)C2c2cccnc2)c1 (stereo unspecified)	7.7	-9	14	-22%	0
Cc1ccc2nc(-c3ccccc3)cc(C(=O)NCC(c3ccco3)N(C)C)c2c1 (stereo unspecified)	1.4	2	·	·	·
COc1ccc(NC(=O)Cc2coc3cc(C)c(C(C)C)cc23)cc1S(=O)(=O)N1CCOCC1	7.7	-3	-21	1%	8
COC(=O)N/N=C/c1ccc(-c2cccc(Cl)c2)o1	0.2	-3	-18	58%	-8
Cc1c(C(=O)NC(C)CCc2ccccc2)cccc1[N+](=O)[O-] (stereo unspecified)	-0.9	3	-25	9%	-1
COc1cc2c(cc1OC)CN(Cc1cc(OC)c3c(c1)OCO3)CC2	-1.1	3	·	·	·
CC1(C)CC(=O)C(CS(=O)(=O)c2ccccc2)=C(O)C1	0.6	-6	·	·	·
CC(=O)NC1(C(F)(F)F)C(=O)Nc2c1c(=O)[nH]c(=O)n2CC(C)C (stereo unspecified)	-5.3	-6	·	5%	-1
COc1ccc(-n2c(O)c(/C=N/NS(=O)(=O)c3cccc([N+](=O)[O-])c3)c3ccccc3c2=O)cc1OC	-19	-2	·	9%	8
COc1ccc(C2CC(c3ccccc3)=NN2S(=O)(=O)c2ccccc2)cc1 (stereo unspecified)	5.4	8	·	4%	·
Nc1cc(=O)[nH]c(SCC(=O)N2CCCCC2)n1	3.7	0	·	-3%	-2
CCN(CC)C(=O)C1CCCN(C(=S)Nc2cccc3ccccc23)C1 (stereo unspecified)	0.3	0	-15	13%	11
Cc1nc2ccccc2c(=O)n1/N=C/c1ccccn1	-3.8	0	-36	-10%	3
COc1ccc(C(=O)CSc2nc(N)nc(SC)c2C#N)cc1	-0.7	1	-18	-7%	-1
COC/C=C/C1=CC2=CC(=O)C(C)(OC(=O)c3cnc4ccccc4n3)C(=O)C2=CN1CCc1ccccn1 (stereo unspecified)	2.6	1	·	-4%	·
c1cncc(CNc2c3c(nc4nnnn24)CCCC3)c1	1.3	-9	-31	-5%	1	Arbovirus anti repeat=1
CCOC(=O)c1nnn(-c2nonc2N)c1CSc1ccc(C)cc1	-2.9	-2	-19	6%	2

Carrying on.
SMILES	RecA splice inh	Mtb bLac sens	YopH inh	Mtb H37Rv	Arbovirus anti	others
Cn1c(=O)c2c(nc(Br)n2Cc2ccccc2Cl)n(C)c1=O	4.3	6	-2	-10%	-6
COc1ccccc1C(CNC(=O)COc1cc(C)ccc1Cl)N1CCCC1 (stereo unspecified)	3.8	-1	·	·	·
Cc1ccc(-n2c(SCC(=O)N3CCOCC3)nc(O)c(Cc3ccccc3)c2=O)cc1	-0.7	-9	·	·	·
CCOCCCNC(=O)C1c2cc(OC)c(OC)cc2C(=O)N2CCCCC12 (stereo unspecified)	-0.3	7	-19	-8%	-2
O=C(c1ccco1)N1C(=O)c2cccc3c(S(=O)(=O)N4CCCC4)ccc1c23	-3.7	-1	18	-7%	0
O=C(Nc1nc2c(s1)CCc1ccccc1-2)c1cccs1	2.7	8	-24	2%	-2
O=C(/C=C/c1ccc(F)cc1)c1cc(Br)ccc1O	2.7	1	·	1%	·
CN(C)CCCOC(=O)c1ccc(Cl)cc1Cl	0.6	?	-23	4%	12
COc1ccc(N2C(C)=CS/C2=C(/C#N)c2nnc(N3CCOCC3)n2-c2ccccc2)cc1	0.3	0	-39	5%	0
O=C(NCCc1c[nH]c2ccccc12)c1c(Cl)nc2sccn12	·	-11	-45	5%	-5
Cc1sc2ncnc(NCCCN3CCCC3=O)c2c1C	-0.8	4	·	1%	12
O=C1CC2(CCCC2)Oc2ccc(Cl)cc21	-0.1	-3	·	-8%	·
COc1ccc(S(=O)(=O)NC2CCCCC2)c(C)c1C	3.2	2	-15	-2%	-4
COc1cccc(NC(=S)NCc2ccccn2)c1	-1.3	-3	-17	8%	-4
CCC(C)C(NC(=O)OCc1ccccc1)C(=O)OCN1C(=O)c2ccccc2C1=O (stereo unspecified)	2.3	2	10	-5%	3
CCC[C@@H](NS(=O)(=O)c1ccc(C)cc1)C(=O)Oc1ccc2c3c(c(=O)oc2c1)CCC3	-0.5	66	-22	76%	5
COc1ccc2c(c1OC)C(=O)N(c1ccc(C)cc1)C2	-3.0	-3	·	5%	·
COc1cc(NC(=O)c2cnc(N)o2)cc(C(=O)Nc2cccc(C(F)(F)F)c2)c1	0.2	3	·	-3%	·
COc1ccc(C2=C(C=C(C#N)C#N)C(c3ccccc3C)c3ccccc3O2)cc1OC (stereo unspecified)	7.4	11	-18	11%	2
O=C(NN=C1C2CC3CC(C2)CC1C3)c1ccccc1O	-3.9	23	·	-4%	·
COc1ccccc1N1CCN(C(=O)c2cc(=O)c3ccc(C)cc3o2)CC1	0.5	1	·	·	·
CCOC(=O)C1C(=O)CC(O)(c2ccccc2)CC1c1ccccc1 (stereo unspecified)	-0.6	-10	-26	6%	2
CCOc1ccc(CCNC(=O)COC(=O)Cc2c[nH]c3ccccc23)cc1OCC	1.2	-5	·	·	·
C=CCSc1nsc(NC(=O)Nc2ccc(F)cc2)n1	5.4	14	·	·	·
COc1ccc(S(=O)(=O)N2CCOCC2)cc1NC(=O)[C@@H]1CCCN1C(=O)c1cccs1	2.6	-4	·	-5%	8

An excerpt from above in order of length of the SMILES, smallest number first:
SMILES	RecA splice inh	Mtb bLac sens	YopH inh	Mtb H37Rv	Arbovirus anti	others
CN(C)CCCOC(=O)c1ccc(Cl)cc1Cl	0.6	?	-23	4%	12
Cc1sc2ncnc(NCCCN3CCCC3=O)c2c1C	-0.8	4	·	1%	12
O=C(/C=C/c1ccc(F)cc1)c1cc(Br)ccc1O	2.7	1	·	1%	·
O=C(Nc1nc2c(s1)CCc1ccccc1-2)c1cccs1	2.7	8	-24	2%	-2
COc1ccc2c(c1OC)C(=O)N(c1ccc(C)cc1)C2	-3.0	-3	·	5%	·
Cn1c(=O)c2c(nc(Br)n2Cc2ccccc2Cl)n(C)c1=O	4.3	6	-2	-10%	-6
CCOC(=O)C1C(=O)CC(O)(c2ccccc2)CC1c1ccccc1 (stereo unspecified)	-0.6	-10	-26	6%	2
COc1ccccc1C(CNC(=O)COc1cc(C)ccc1Cl)N1CCCC1 (stereo unspecified)	3.8	-1	·	·	·
CCOc1ccc(CCNC(=O)COC(=O)Cc2c[nH]c3ccccc23)cc1OCC	1.2	-5	·	·	·
CCC(C)C(NC(=O)OCc1ccccc1)C(=O)OCN1C(=O)c2ccccc2C1=O (stereo unspecified)	2.3	2	10	-5%	3
O=C(c1ccco1)N1C(=O)c2cccc3c(S(=O)(=O)N4CCCC4)ccc1c23	-3.7	-1	18	-7%	0
Cc1ccc(-n2c(SCC(=O)N3CCOCC3)nc(O)c(Cc3ccccc3)c2=O)cc1	-0.7	-9	·	·	·
COc1cc(NC(=O)c2cnc(N)o2)cc(C(=O)Nc2cccc(C(F)(F)F)c2)c1	0.2	3	·	-3%	·
COc1ccc(S(=O)(=O)N2CCOCC2)cc1NC(=O)[C@@H]1CCCN1C(=O)c1cccs1	2.6	-4	·	-5%	8
CCC[C@@H](NS(=O)(=O)c1ccc(C)cc1)C(=O)Oc1ccc2c3c(c(=O)oc2c1)CCC3	-0.5	66	-22	76%	5

New compounds follow:
SMILES	RecA splice inh	Mtb bLac sens	YopH inh	Mtb H37Rv	Arbovirus anti	others
O=C(c1ccc(S(=O)(=O)N2CCc3ccccc3C2)cc1)N1CCCCC1	0.9	-5	·	2%	10
COc1ccc(NS(=O)(=O)c2cccc(NC(=O)c3ccc(Cl)nc3)c2)cc1	2.8	-3	·	6%	-10
CC(=O)NC(CC(=O)O)C(=O)O (stereo unspecified)	-3.9	-5	·	·	·
CN1CCN(S(=O)(=O)c2cccc(C(=O)Oc3ccc(Br)cc3F)c2)CC1	5.7	12	·	·	·
Cc1ccc(S(=O)(=O)N2CCCCC2)cc1NC(=O)C1CCCO1 (stereo unspecified)	1.5	-3	·	5%	-1
Cn1ncc(Cl)c1C(=O)Nc1nc2ccc(Cl)cc2s1	1.2	2	-39	3%	9
Cc1ccc(CN2CCCC(C(=O)N3CCCC3)C2)cc1 (stereo unspecified)	1.9	-7	·	·	·
CN(N=Nc1cccc([N+](=O)[O-])c1)c1cccc([N+](=O)[O-])c1	1.1	2	·	6%	-1
Cc1ccc(SC(C)C(=O)NCc2cccnc2)cc1 (stereo unspecified)	-1.4	-9	-9	4%	3
C/C(=N\NC(=O)C(=O)Nc1cc(Cl)ccc1Cl)c1ccncc1	0.3	84	-5	?	-3
Cc1c(C2=CCN(S(=O)(=O)c3ccc(Br)cc3)CC2)c2ccccc2n1C	-4.4	-3	-14	-2%	1
COC(=O)c1ccsc1NS(=O)(=O)c1ccccc1	-0.9	-6	·	·	·
Cc1ccc(Nc2nc(Oc3ccc(=O)[nH]n3)nc(N(C)C)n2)cc1	·	-10	28	4%	-8
O=C(N/N=C/c1ccccc1OCc1ccccc1Cl)c1cccnc1	3.6	5	·	4%	8
Cc1cc(C)c(S(=O)(=O)N2CCCOC2CNC(=O)C(=O)NCCCn2ccnc2)c(C)c1 (stereo unspecified)	-0.4	-6	-29	-4%	4
Cc1cc(C)cc(N(CC(=O)NCc2ccc3c(c2)OCO3)C(=O)CCC(=O)Nc2ccccn2)c1	6.0	-3	-23	1%	-13
Cc1nn(-c2ccccc2)c(C)c1/C=N/n1c(-c2ccc(C(C)(C)C)cc2)n[nH]c1=S	3.9	-6	-32	6%	-15
Cc1cccc(NC(=O)NCc2ccccn2)c1	0.0	-4	-22	-8%	3
NC(=O)C1(N2CCCCC2)CCN(C(=S)Nc2cc(F)cc(F)c2)CC1	-0.1	1	·	4%	2
O=C(O)C1C2CCCCC2=C2CCCCC2C1C(=O)O (stereo unspecified)	-1.2	4	-28	-3%	-7
Nc1nc(SCC(=O)Nc2cccc(Oc3ccccc3)c2)n[nH]1	0.7	-6	-30	10%	-1
CCCCN=C(C)C1=C(O)CSC1=O	-2.6	-3	-39	4%	1	Arbovirus anti repeat=0
C/C(=N\Nc1nc2ccccc2[nH]1)c1ccc(Cl)s1	13	66	-21	?	-29
COc1ccc(-c2cc3ccc(O)cc3oc2=O)cc1OC	i	4	·	·	·
Cc1cc(C)c2c(C)nn(C3CCCCC3)c2n1	2.7	-2	8	-6%	3

(cont.)
SMILES	RecA splice inh	Mtb bLac sens	YopH inh	Mtb H37Rv	Arbovirus anti	others
CC1=C(C)CC2C(=O)N(c3cccc4ccccc34)C(=O)C2C1 (stereo unspecified)	1.1	2	-14	-4%	-2	Arbovirus anti repeat=5
COc1cc(OC)c(NS(=O)(=O)c2c(C(=O)N3CCCCC3)c(C)n(C)c2C)cc1Cl	0.2	5	·	·	·
CCn1c2ccccc2c2cc(NC(=O)COC(=O)c3ccc(NC(=O)CC#N)cc3)ccc21	-3.3	0	·	·	·
O=C(CSCCc1ccccn1)Nc1ccccn1	5.9	-27	1	0%	1
O=C(NCc1cccc(Cl)c1)c1cnn2c1NC(c1ccco1)CC2C(F)(F)F (stereo unspecified)	-1.2	-5	-15	7%	1
O=C(Nc1ccc(S(=O)(=O)N2CCCCC2)cc1)c1ccc(CN2CCOCC2)cc1	-0.5	4	-1	-3%	-17
CN(C)/C=N/n1cnc2ccccc2c1=O	-0.3	-8	·	7%	·
CC(C(=O)N(C)C1CCS(=O)(=O)C1)N1C(=O)/C(=C/c2ccco2)SC1=S (stereo unspecified)	10	-2	·	·	·
CCn1cc(C(=O)NCCc2ccc(OC)cc2)c(=O)c2ccc(C)nc21	1.5	-2	·	·	·
COCCN(Cc1ccccc1)C(=S)Nc1ccc(Cl)cc1	2.4	3	·	-8%	4
Cc1cc(C)n(CCCNC(=O)CN(C)S(=O)(=O)c2ccc(Cl)cc2)n1	-1.1	-15	·	·	·
